EPAC2 ant val – validation of human EPAC2 antagonists; Potency, µM (highest dose often 112 µM), for the others: at the top dose activity, negative = inhibition, usual class: inhibitors; Q8WZA2; EPAC2 Rap1B BODIPY-GDP exchange, fluorescence; hit rate 1.7% among 16,000; active means well fitted inhibition curve with a large enough effect; inconclusive means small, poorly fitted or top-dose-only effect; inactive means no such curve, though single readings can be large or run the other way;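 further: 100% = activation by cAMP agonist control; nearly all actives have a fitted effect of over 40% in size; the record reuses the description of the EPAC1 agonist screen; inactives centre near -10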
Target sequence (Q8WZA2 whole entry, looked up): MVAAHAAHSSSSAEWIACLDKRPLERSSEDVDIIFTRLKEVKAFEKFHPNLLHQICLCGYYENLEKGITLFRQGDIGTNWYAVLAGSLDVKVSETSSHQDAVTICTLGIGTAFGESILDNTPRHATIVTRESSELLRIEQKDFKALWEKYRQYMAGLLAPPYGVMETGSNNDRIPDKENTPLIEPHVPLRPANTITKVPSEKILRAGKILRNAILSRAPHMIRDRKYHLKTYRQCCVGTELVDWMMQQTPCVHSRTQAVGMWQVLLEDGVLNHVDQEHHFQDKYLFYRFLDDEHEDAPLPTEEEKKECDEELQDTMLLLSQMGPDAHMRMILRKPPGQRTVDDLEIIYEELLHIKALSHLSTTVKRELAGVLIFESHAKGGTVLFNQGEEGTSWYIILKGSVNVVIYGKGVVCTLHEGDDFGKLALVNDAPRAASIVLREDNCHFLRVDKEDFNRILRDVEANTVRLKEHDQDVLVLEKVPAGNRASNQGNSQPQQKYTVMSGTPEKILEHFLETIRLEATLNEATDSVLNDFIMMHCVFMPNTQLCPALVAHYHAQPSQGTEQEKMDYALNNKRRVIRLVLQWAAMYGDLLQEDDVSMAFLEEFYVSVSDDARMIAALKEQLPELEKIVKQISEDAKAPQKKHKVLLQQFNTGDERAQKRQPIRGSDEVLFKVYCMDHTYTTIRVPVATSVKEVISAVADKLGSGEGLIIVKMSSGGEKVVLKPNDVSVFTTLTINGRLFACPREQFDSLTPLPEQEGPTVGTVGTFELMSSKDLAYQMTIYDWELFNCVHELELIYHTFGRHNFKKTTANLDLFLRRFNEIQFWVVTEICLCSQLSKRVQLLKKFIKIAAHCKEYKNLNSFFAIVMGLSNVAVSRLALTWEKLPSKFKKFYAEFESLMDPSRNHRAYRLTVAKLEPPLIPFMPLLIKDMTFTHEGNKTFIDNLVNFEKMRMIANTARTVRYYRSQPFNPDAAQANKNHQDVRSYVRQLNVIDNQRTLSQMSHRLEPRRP
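Fluorescent exchange read-out: 100 nM EPAC2 with 250 nM RAP1B–BODIPY-GDP and 50 uM GDP; BODIPY-GDP release lowers fluorescence. Read at 480/540 nm every 5 min for 30 min at room temperature; normalized to 6.5 mM cAMP.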
* marks the source's active call; other numbers are inactive results; ? = inconclusive; & = joins results of further samples; ! = a repeat was not active; [ ] = another dose, or the depositor's remark. Potency means the concentration at half of the fitted maximal effect.

SMILES	EPAC2 ant val
COc1ccc2[nH]c(C(O)C(O)c3nc4c(OC)c(OC)ccc4[nH]3)nc2c1OC (stereo not given)	-3%
C1CCc2nnnn2CC1	13%&14%&3%
Cc1cnc(SCc2ccccn2)nc1C1CCCN(C(=O)c2cc3ccccc3oc2=O)C1 (stereo not given)	-15%
CCOC(=O)C[n+]1cccc(Br)c1	5%
Cc1ccccc1-c1cncnc1Nc1ccccc1	-15%
CS(=O)(=O)N1CCC2(CCN(Cc3ccncc3)CC2)CC1	-26%
N#Cc1ccc(CN2CCC3(CCNCC3)CC2)cc1	-29%
CC1(COc2ccc(C[C@H]3SC(=O)NC3=O)cc2)CCCCC1	?
COc1ccc(C2c3[nH]c4ccccc4c3CC3C(=O)N(CCc4ccc(OC)c(OC)c4)CC(=O)N32)cc1 (stereo not given)	-23%
NC[C@@H]1O[C@H](O[C@H]2[C@H](O)[C@H](O[C@H]3[C@@H](O)[C@H](N)C[C@H](N)[C@H]3O[C@H]3O[C@H](CN)[C@H](O)[C@H](O)[C@H]3N)O[C@@H]2CO)[C@@H](N)[C@@H](O)[C@@H]1O	17%[29.6 µM]
O=C(O)C(=O)Nc1cccc(C2=NN=N[N]2)c1	24%
Cn1c(=O)c(-c2ccc(Cl)cc2)nc2cnc(N3CCOCC3)nc21	-3%
O=C(c1cccc(Cn2cccn2)c1)N1CCC(n2c(C3CCCO3)nc3cc(C(F)(F)F)ccc32)CC1 (stereo not given)	-1%
COc1ccc(CNc2ccnc(-c3cccnc3)n2)c(OC)c1	-25%
COc1ccc(OC)c(-c2cc(Cl)c3c(c2)CC(CNC(=O)c2cccnc2SC)O3)c1 (stereo not given)	-26%
COc1ccc(C(=O)C[N+]2(C)CCOCC2)cc1	-9%
Cc1cnc(CNc2ncncc2-c2ccccc2C)cn1	-24%
c1ccc(CN2CCN(Cc3ccc4c(c3)CN(Cc3c[nH]c5ccccc35)CCO4)CC2)nc1	1%
c1ccc2c(Nc3ccncc3)nc(-c3ccoc3)nc2c1	-19%
CC(=O)N1CCC2(CC1)CCN(c1cccc(-c3ccccc3)c1)CC2	?
CN(C)c1ncc2nc(-c3cc(F)cc(F)c3)c(=O)n(C3CC3)c2n1	-28%
O=C(c1ccco1)N1CCC2(CC1)CCN(c1ccccn1)CC2	-22%
S=c1nc[nH]c2nc[nH]c12	-13%&-16%
COc1ccc2[nH]c(-c3ccccc3)c(CCNC(C)=O)c2c1	?
COc1ccc(CNC(=O)c2cnn(-c3ncc4c(n3)-c3ccccc3CC4)c2C)cc1OC	10%
COc1cc2c(cc1OC)C(=O)OC2	-4%
Cc1c(O)c(=O)ccn1C	6%
Cc1ccc2cc(CNCc3cccc4ccccc34)c(N3CCC(O)CC3)nc2c1	-19%
Cn1c(=O)c(-c2cc(F)cc(F)c2)nc2cncnc21	-16%
O=C(O)/C=C/C(=O)Nc1ccc(S(=O)(=O)Nc2nccs2)cc1	2%
Cn1cccc1C(=O)N1CCC2(CCCN(c3ccccc3)C2)CC1	?
FC(F)(F)c1ccccc1-c1ccc2ncnc(NCCN3CCOCC3)c2c1	-8%
FC(F)(F)c1ccccc1-c1cc(N2CCNCC2)ncn1	-9%
Cc1noc(C)c1-c1cncnc1N1CCN(C)CC1	-1%
CN(C(=O)CN(CCO)CC(=O)N(C)C(C)(C)Cc1ccccc1)C(C)(C)Cc1ccccc1	0%[56.6 µM]
Cc1noc(C)c1C(=O)N1CCC[C@@]2(CCN(c3ncccn3)C2)C1	-19%

Two entries drawn at random from the list so far, as already listed:
SMILES	EPAC2 ant val
CCOC(=O)C[n+]1cccc(Br)c1	5%
FC(F)(F)c1ccccc1-c1ccc2ncnc(NCCN3CCOCC3)c2c1	-8%

The results go on:
SMILES	EPAC2 ant val
Cc1ccccc1C1(CC(=O)N2CCC[C@H]2C(N)=O)CC(=O)N(C2CCCC2)C1=O (stereo not given in full)	1%
COc1ccc(-n2c(CNC(=O)c3c(-c4ccccc4)noc3C)nnc2SC)cc1	-12%
O=C([C@@H]1CC=C[C@@H]2CCN(C3CCCCC3)C(=O)[C@@H]21)N1CCN(c2ccccc2)CC1	-8%
COCCNc1nc(-c2cccc(OC)c2)nc2ccccc12	-29%
NS(=O)(=O)c1ccc(NC(=O)CCC(=O)O)cc1	-6%
Cc1ncc2c(c1CNC(=O)c1ccc3c(c1)OCO3)CCN(C(=O)c1noc3c1CCCC3)C2	-8%
NC1C(O)OC(CO)[C@@H](O)[C@@H]1O[C@H]1O[C@@H](C(=O)O)C(O)C(O)C1O (stereo not given in full)	-7%
COCc1c(C(=O)N2CCN(C(C)C)CC2)cnn1-c1nccc(-c2cc(C)sc2C)n1	?
O=C(O)Cc1cccc(-c2cc(CCCCCCc3ccc(O[C@H]4O[C@H](CO)[C@@H](O)[C@H](O)[C@@H]4O)c(-c4cccc(CC(=O)O)c4)c3)ccc2O[C@H]2O[C@H](CO)[C@@H](O)[C@H](O)[C@@H]2O)c1	38%[activator]
CN(C)C(=O)CCC(=O)NCC1Cc2cccc(-c3ccccc3C(F)(F)F)c2O1 (stereo not given)	7%
Cc1cc(O)c2c(c1O)C(=O)C(O)=C(O)C2=O	-3%
N#Cc1ccc[n+](CC(=O)c2ccc(F)cc2)c1	-29%
Nc1nc2[nH]c(=O)cnc2c(=O)[nH]1	-23%
COc1cccc(Cn2c(=O)c(-c3cc(F)cc(F)c3)nc3cnc(N4CCOCC4)nc32)c1	-13%
CCCN1CCC(=O)N([C@H](CN=[N+]=[N-])Cc2ccccc2)CC1	-45%
OCCN1CCN(CCCN2c3ccccc3Sc3ccc(C(F)(F)F)cc32)CC1	50µM*!
CS(=O)(=O)c1ccc(-c2ccc3c(c2)CC(CNC(=O)C2(N4CCOCC4)CCCCC2)O3)cc1 (stereo not given)	4%
Oc1ccc(Cl)cc1CN1CCOc2c(O)cc(-c3nc4ccccc4s3)cc2C1	?
O=S(=O)(O)c1cc(I)c(O)c2ncccc12	18%
Cc1cccc2cc(CN(CC3CCCO3)C(=O)c3cccc(F)c3)c(N(C)C)nc12 (stereo not given)	4%
CCCCCCCCCCCCCCCC(=O)NCC(COP(=O)([O-])OCC[N+](C)(C)C)OCC (stereo not given)	-30%
CCCCOc1cc(C[C@@H]2CNC(=O)N2)ccc1OC	?
COc1ccc(-c2nc3cc(F)ccc3cc2CN(C(=O)c2cccs2)C2CC2)cc1	-20%
COc1ccccc1CNc1ncnc2ccc(-c3ccccc3CN(C)C)cc12	-17%
O=c1c(-c2cc(F)cc(F)c2)nc2cncnc2n1Cc1ccccc1	-28%
CN(C)/N=N/c1nc[nH]c1C(N)=O	-19%&6%
CN1C(=O)N(C)C2=NNC=NC2(O)C1=O (stereo not given)	-12%
COc1ccc(-n2c(=O)c(-c3cccs3)nc3cnc(N4CCN(C)CC4)nc32)cc1	22%
Nc1ncnc2c1ncn2C1OC(COP(=O)(O)O)C(O)C1O (stereo not given)	-4%
O=C(Nc1cccc(C(=O)Nc2ccc(S(=O)(=O)O)c3cc(S(=O)(=O)O)cc(S(=O)(=O)O)c23)c1)Nc1cccc(C(=O)Nc2ccc(S(=O)(=O)O)c3cc(S(=O)(=O)O)cc(S(=O)(=O)O)c23)c1	-11%&-6%&-12%
COC(=O)c1cc(CNC(=O)c2ccccc2)cc(NC(=O)c2ccccc2OC)c1	?
CC(C)C[C@@H](CO)N1CCN(Cc2ccccc2)CCC1=O	?
COc1cc2nc(N(C)CCCNC(=O)C3CCCO3)nc(N)c2cc1OC (stereo not given)	-7%
CCN(Cc1ccncc1)Cc1ccc2c(c1)CN(C(=O)c1ccc(OC)cc1)CCO2	-10%
COc1ccc2[nH]cc(CCNc3ncnc4ccc(-c5ccc6c(c5)OCO6)cc34)c2c1	-26%
COc1ccc(C(=O)N2CCC3(CC2)CN(c2ccccn2)C3)cc1	-28%

Of the compounds above, these have an NH in an aromatic ring:
SMILES	EPAC2 ant val
COc1ccc2[nH]c(C(O)C(O)c3nc4c(OC)c(OC)ccc4[nH]3)nc2c1OC (stereo not given)	-3%
COc1ccc(C2c3[nH]c4ccccc4c3CC3C(=O)N(CCc4ccc(OC)c(OC)c4)CC(=O)N32)cc1 (stereo not given)	-23%
c1ccc(CN2CCN(Cc3ccc4c(c3)CN(Cc3c[nH]c5ccccc35)CCO4)CC2)nc1	1%
S=c1nc[nH]c2nc[nH]c12	-13%&-16%
COc1ccc2[nH]c(-c3ccccc3)c(CCNC(C)=O)c2c1	?
Nc1nc2[nH]c(=O)cnc2c(=O)[nH]1	-23%
CN(C)/N=N/c1nc[nH]c1C(N)=O	-19%&6%
COc1ccc2[nH]cc(CCNc3ncnc4ccc(-c5ccc6c(c5)OCO6)cc34)c2c1	-26%

Next section:
SMILES	EPAC2 ant val
CC(C)(C)c1ccc2c(S(=O)(=O)O)c(C(C)(C)C)ccc2c1	-22%[239 µM]
COCCN1CCN(C(=O)c2cnn(-c3nccc(-c4ccccc4OC)n3)c2-c2ccco2)CC1	48%[activator]
CSc1ccccc1C(=O)NCC1Cc2cccc(-c3ncccc3C)c2O1 (stereo not given)	-12%
N#CCCN1CCC(NC(=O)OCc2ccccc2)CCC1=O (stereo not given)	23%
O=C(O)CCC(=O)N1CCCC1C(=O)O (stereo not given)	-7%
CCCCC(CC)CN1CN(CC(CC)CCCC)CC(C)(N)C1 (stereo not given)	?
CC1CC(=O)NN=C1c1ccc(NCC(C)(C)NCC(O)COc2cc(Cl)ccc2C#N)cc1 (stereo not given)	5%
CCCCCCCCCC[Si](C)(C)CCC(=O)NC(Cc1ccc(C)cc1)c1ccccc1 (stereo not given)	-2%
COC(=O)C[C@](O)(CCCC(C)(C)O)C(=O)O[C@@H]1C(OC)=C[C@]23CCCN2CCc2cc4c(cc2[C@H]13)OCO4	-14%
O=S(c1cc(Cl)cc(Cl)c1O)c1cc(Cl)cc(Cl)c1O	?
O=Cc1ccccc1-c1cn(CN2C(=O)c3ccccc3C2=O)nn1	-28%
NS(=O)(=O)c1ccc(C(=O)O)cc1	13%
Clc1cccc2c1CN(C1=NCCN1)C2	-12%
COc1ccc2[nH]cc(CCNc3ccnc(-c4ccc(C(=O)N(C)C)cc4)n3)c2c1	-20%
COc1ccccc1N1CCN(CCN(C(=O)C2CCCCC2)c2ccccn2)CC1	4%
CCCn1c(=O)c2[nH]c(-c3ccc(OCC(=O)NCCN)cc3)nc2n(CCC)c1=O	?
CCCCNC(=O)[C@@H]1CC=C[C@@H]2CCN(C3CCCCC3)C(=O)[C@@H]21	17%
C[C@]12C=CC(=O)C=C1CC[C@@H]1[C@@H]2[C@@H](O)C[C@@]2(C)[C@H]1CC[C@]2(O)C(=O)COC(=O)CCC(=O)O	31%
O=c1c(-c2cccs2)nc2cnc(N3CCOCC3)nc2n1Cc1ccc(F)cc1	-1%
Cc1noc(C)c1-c1nccc(N2CCNCC2)n1	-7%
CN(C)Cc1ccccc1-c1cc(-n2ccnc2)ncn1	-8%
C=C(c1ccc2ccccc2n1)c1cccs1	?
Cc1cc(CNC(=O)CCN2Cc3cc(Cl)ccc3OC(C)C2)nn1C (stereo not given)	-10%
O=C(Nc1cccc(F)c1)N1CCCC2(CCN(C(=O)c3cccc(F)c3)CC2)C1	-23%

Some of the entries so far, with bars between the fields.
SMILES | EPAC2 ant val
O=c1c(-c2cccs2)nc2cnc(N3CCOCC3)nc2n1Cc1ccc(F)cc1 | -1%
COc1ccc2[nH]cc(CCNc3ccnc(-c4ccc(C(=O)N(C)C)cc4)n3)c2c1 | -20%

(next part)
SMILES	EPAC2 ant val
CCN(Cc1ccncc1)Cc1ccc2c(c1)CN(C(=O)c1cccc3c(C)c(C)[nH]c13)CCO2	-29%
c1ccc2occc2c1	1%[239 µM]
COCC(=O)N1CCC2(CC1)CN(c1ccccc1)C2	-12%
O=c1[nH]c(=O)n(C2CC(O)C(CO)O2)cc1F (stereo not given)	-25%
C[C@@]12C(=O)OC(=O)[C@@]1(C)[C@@H]1CC[C@@H]2O1	56µM*
CN(CCc1ccc(Cl)c(Cl)c1)CCN1CCCCCC1	-9%
COc1ccc(-c2nc3cnc(N4CCOCC4)nc3n(CCC#N)c2=O)cc1	-17%
CCSc1nnc(C(C)NC(=O)c2ccc(OC)cc2)n1C (stereo not given)	-15%
OC(c1cc(C(F)(F)F)nc2c(C(F)(F)F)cccc12)C1CCCCN1 (stereo not given)	-2%
CC(C)N1CCN(C(=O)c2cnn(-c3nccc(-c4ccc5c(c4)OCO5)n3)c2-c2ccco2)CC1	-2%
CC1(C)S[C@H]2[C@@H](NC(=O)C(N)c3ccccc3)C(=O)N2[C@H]1C(=O)O (stereo not given in full)	-18%
CN(C)c1ccc(-c2ccc3ncnc(N4CCNCC4)c3c2)cc1	-12%
COc1ccc(C(=O)N2CCC3(CC2)CCN(c2ccccn2)CC3)cc1	-20%
COc1ccc2c(c1)OC(C)CN(CCNC(=O)c1cccc(N3CCNC3=O)c1)C2 (stereo not given)	-16%
COc1ccc(SCCN2CC[C@@H](NC(=O)OCc3ccccc3)CCC2=O)cc1	-4%
COc1ncc2nc(-c3cc(F)cc(F)c3)c(=O)n(-c3ccccc3)c2n1	-19%
CN(C)CCCn1cc(C2=C(c3c[nH]c4ccccc34)C(=O)NC2=O)c2ccccc21	?
O=C(c1cnn2cccnc12)N1CCOc2ccc(C(O)C(c3ccccc3)c3ccccc3)cc2C1 (stereo not given)	-27%
COc1ccc(-c2coc3ccc(OC4OC(COC(C)=O)C(OC(C)=O)C(OC(C)=O)C4OC(C)=O)c(OC(C)=O)c3c2=O)cc1 (stereo not given)	-17%
Cc1cccc2cc(CN(C(=O)c3ccc(-c4ccc(F)cc4)cc3)C3CC3)c(N3CCC(O)CC3)nc12	-14%
CC(=O)N1CCC2(CC1)CCN(c1ccncc1)CC2	-15%
CN1CCN(c2ncc3nc(-c4cc(F)cc(F)c4)c(=O)n(CCC#N)c3n2)CC1	17%
COc1ccc2[nH]cc(CCNc3cc(-c4ccccc4CN(C)C)ncn3)c2c1	-10%

The list is partial (hit frequency here may not be typical).
